Screens (PubChem)
26S disassembly = inhibitors of ATP-driven 26S proteasome dissociation, primary screen, biochemical, bead-based flow cytometry, GFP-tagged proteasome | anti-FLAG beads, GFP-proteasome disassembly | inhibition of disassembly, % (test concentration not listed) | hit rate 0.2% among 24,000 | AID 751, 2007;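 active means above 40%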;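 further: plate controls were ATP control with full disassembly for no effect and ATP-gamma-S intact proteasomes for full effect; higher percent means more bead fluorescence retained so stronger block of disassembly; stock transfer was 100 nL into about 10 µL; wells with too few beads may also be inconclusive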
VCAM-1 up = enhancers of VCAM-1 display on endothelial cells, cell-based, plate reader, pooled HUVEC, TNFa stimulus (AID 455); HUVEC TNFa-induced VCAM-1 immunofluorescence, plate reader; numbers were filed only for top-ranked candidate wells; hit rate 0.2% among 10,000; augmentation, % at 5 µM;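 active means a compound raising TNF-alpha-driven VCAM-1 surface staining, with its hit status upheld on visual or statistical review; inactive means the rest, including hits rejected on review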;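 further: 0% = TNFa with vehicle and 100% = strongest image-checked hit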
* hit, by the source's call; i = inactive; x = no result given. Not all compounds are listed, so the mix of outcomes need not match the whole.

SMILES	26S disassembly	VCAM-1 up
COc1ccc(-n2nc(C(=O)NCC(=O)NCc3ccco3)c3ccccc3c2=O)cc1Cl	0.5	x
CCSc1nnc(NC(=O)C2CCCN(S(=O)(=O)c3cnc[nH]3)C2)s1 (configuration not stated)	0.7	i
O=C(CCCN1C(=O)c2ccccc2C1=O)Nc1c2c(nc3c1CCC3)CCC2	-0.1	x
CCN1CCN(C(=O)Cn2ncc3ccsc3c2=O)CC1	3.3	i
COc1c(C)cccc1C(=O)Nc1cc(-c2nn3c(C)nnc3s2)ccc1C	0.3	x
CCC(C(=O)Nc1ccccc1C(=O)N1CCCC1)N1C(=O)c2ccccc2C1=O (configuration not stated)	-0.1	i
CCN(CC)C(=O)COc1ccc2oc(C)c(C(=O)OC(C)C)c2c1	-2.8	i
Cc1ccc(CNC(=O)C2CCCN(c3nc4ccccc4o3)C2)cc1 (configuration not stated)	-0.7	x
Cc1ccc(OCC(=O)N2CCN(C(=O)CCC3CCCC3)CC2)cc1	0.2	i
CCOc1ccc(NC(=O)N(C2CCCCC2)C(C)c2ccncc2)cc1 (configuration not stated)	-0.2	x
Cc1ccc(NC(=O)Cn2c(=O)n(CCCC(=O)NCc3ccco3)c(=O)c3ccccc32)cc1	-1.1	x
CC(=O)Nc1ccc(S(=O)(=O)Nc2nc3c(s2)CCCC3)cc1	-1.2	i
Cc1ccc(Cn2ccc(NC(=O)c3cc(CC(C)C)on3)n2)cc1	-1.6	x
CCOC(=O)c1cnc2cc(Cl)c(OC)cc2c1NCC1CCCO1 (configuration not stated)	0.1	x
Cc1cccc(NC(=O)Nc2ccc(C#N)cc2)n1	-1.1	x
CCC(Sc1ncccc1C(=O)OCCN1CCCC1=O)C(=O)NCc1ccco1 (configuration not stated)	-1.2	x
Cc1n[nH]c(C)c1S(=O)(=O)N1CCCC(C(=O)NC2CCCCC2)C1 (configuration not stated)	3.4	x
OCCNc1nc(OCC(F)(F)F)nc(N2CCN(C34CC5CC(CC(C5)C3)C4)CC2)n1	2.0	x
Cn1c(C(=O)N2CCCCCC2)cc2c(=O)n(C)c3ccccc3c21	-2.6	x
COc1ccc(CSCCN)cc1Cl	-4.6	i
CCC(C)NC(=O)C1CCN(S(=O)(=O)N2CCCC2)CC1 (configuration not stated)	-0.7	x
CCN(CC)S(=O)(=O)c1ccc(Cl)c(C(=O)OC)c1	-1.1	i
COc1cccc(C2=NOC(C(=O)N3CCN(c4ccccc4)CC3)C2)c1OC (configuration not stated)	0.2	i
O=C(CS(=O)(=O)c1c[nH]c2ccccc12)Nc1ccc2c(c1)OCCO2	-0.6	x
CC(C)CC1(C(=O)O)NC(c2ccccc2O)C2C(=O)N(C(C)C)C(=O)C21 (configuration not stated)	0.6	x
Going on with the list.
SMILES	26S disassembly	VCAM-1 up
CCOC(=O)c1ccc(N(CC(=O)NC2CCCC2)C(=O)CNC(=O)c2ccco2)cc1	0.1	i
C[C@]12CCC(=O)C=C1CC[C@@H]1[C@@H]2C(=O)C[C@@]2(C)[C@H]1CC[C@]2(O)C(=O)CO	-0.3	i
Cc1ccc(S(=O)(=O)C2(C(=O)N3CCCCC3C)CC2)cc1 (configuration not stated)	-1.6	x
CCOc1ccc(NC(=O)c2nnn(CC(=O)Nc3ccccc3OCC)c2N)cc1	0.9	x
CCOC(=O)n1ccc(C(=O)Nc2ccccc2F)n1	3.0	x
C=CCn1c(SCC(=O)N2CCN(c3ccc(F)cc3)CC2)nnc1-c1cccs1	1.6	x
C=CCC(NCc1ccco1)c1ccc(OC)cc1OC (configuration not stated)	-3.5	i
NC(=O)C(Cc1ccccc1)NS(=O)(=O)c1ccc(N2CCCC2=O)cc1 (configuration not stated)	1.6	i
CCCCCNC(=O)c1ccc2c(=O)[nH]c3c(C(=O)NCC4CCCO4)sc(=S)n3c2c1 (configuration not stated)	-1.1	x
O=C(C1CC1)N1CCC(c2nc(-c3ccc(S(=O)(=O)NCC4CCCO4)cc3)no2)CC1 (configuration not stated)	-0.9	i
CCOc1ccc2nc(NC(=O)C(NS(=O)(=O)c3cccs3)C(C)C)sc2c1 (configuration not stated)	1.2	i
Cc1cc(C)cc(NC(=O)CN(C)S(=O)(=O)c2cnc[nH]2)c1	-1.1	i
CCOC(=O)C1CCN(C(=O)C2CCN(S(=O)(=O)N3CCCC3)CC2)CC1	-1.3	x
CCN(CC)c1nc2nonc2nc1N(CC)CC	2.2	i
CC(=O)N(C)c1ccc(NC(=O)c2cnn(C)c2)cc1	-1.3	x
COc1ccc(OC)c(NC(=O)c2cc3n(n2)C(C(F)(F)F)CC(c2ccc4c(c2)OCO4)N3)c1 (configuration not stated)	2.0	x
CN(Cc1ccccc1)Cc1nc2c(c(=O)n(C)c(=O)n2C)n1Cc1ccc(Cl)cc1	0.9	i
Cc1nn(Cc2ccc(F)cc2)c(C)c1NC(=O)c1cc(-c2ccco2)on1	0.3	x
CCOc1ccc(OCC)c(NC(=O)c2ccc(CNc3c(N4CCOCC4)c(=O)c3=O)cc2)c1	0.6	x
Clc1ccc(OCc2nnc(SCCN3CCCCC3)n2Cc2ccco2)cc1	3.8	i
Cc1nc2c(-c3ccccc3)c(C)nn2c(C)c1CCC(=O)NCc1ccco1	0.5	i
CCOCCCNS(=O)(=O)c1ccc2c(c1)CCN2C(=O)CC	0.8	x
O=C(NCCN1CCCC1)C1COc2ccccc2O1 (configuration not stated)	3.5	i
COc1ccc(-c2noc(CCCOc3ccccc3)n2)cc1OC	-4.1	i
CCOC(=O)CSc1ncnc2c1cnn2-c1ccc(C)cc1	-0.4	i

Entries shown so far that contain an aryl thioether with sulfur outside any ring, in the order listed:
SMILES	26S disassembly	VCAM-1 up
CCSc1nnc(NC(=O)C2CCCN(S(=O)(=O)c3cnc[nH]3)C2)s1 (configuration not stated)	0.7	i
CCC(Sc1ncccc1C(=O)OCCN1CCCC1=O)C(=O)NCc1ccco1 (configuration not stated)	-1.2	x
C=CCn1c(SCC(=O)N2CCN(c3ccc(F)cc3)CC2)nnc1-c1cccs1	1.6	x
Clc1ccc(OCc2nnc(SCCN3CCCCC3)n2Cc2ccco2)cc1	3.8	i
CCOC(=O)CSc1ncnc2c1cnn2-c1ccc(C)cc1	-0.4	i

Among those listed so far, these have a thiophene ring, fused or not:
SMILES	26S disassembly	VCAM-1 up
CCN1CCN(C(=O)Cn2ncc3ccsc3c2=O)CC1	3.3	i
C=CCn1c(SCC(=O)N2CCN(c3ccc(F)cc3)CC2)nnc1-c1cccs1	1.6	x
CCOc1ccc2nc(NC(=O)C(NS(=O)(=O)c3cccs3)C(C)C)sc2c1 (configuration not stated)	1.2	i

Additional records follow:
SMILES	26S disassembly	VCAM-1 up
Cc1[nH]c2ccccc2c1Cc1nnc(SCC(N)=O)o1	1.6	x
Clc1ccc(Cl)c2sc(N3CCOCC3)nc12	0.0	x
Cc1oc(-c2ccccc2Cl)nc1CSCC(=O)N1CCCC1	-0.8	i
CCOc1ccc(C2CC(c3cccc(OC)c3OC)n3nnnc3N2)cc1Cl (configuration not stated)	-1.3	x
Cc1ccc(C2C3CSCC=C3C(C#N)=C(N)C2(C#N)C#N)cc1 (configuration not stated)	40.3*	x
COc1ccccc1-c1nnc2sc(-c3ccc(N(C)C)cc3)nn12	-1.6	i
COc1ccc(C2=NOC(C(=O)Nc3cc(C)nn3-c3ccccc3)C2)cc1OC (configuration not stated)	-1.5	x
Cc1ccc(CN2CCN(C(=O)C3CCC3)CC2)cc1	3.6	i
O=C(O)CCNc1ccc2c(c1)OCCO2	1.3	i
CCn1cc(C(=O)NCCCOC)c2cc(OC)c(OC)cc2c1=O	-1.4	x
Nc1nc(Cl)nc2c1ncn2[C@H]1C[C@H](O)[C@@H](CO)O1	-0.5	i
CN(CCNC(=O)C1CC(=O)N(c2ccc(F)c(Cl)c2)C1)Cc1ccccc1 (configuration not stated)	-0.1	x
CC(C)c1ccc(NC(=O)C(c2ccccc2)N2CCN(C(=O)c3ccco3)CC2)cc1 (configuration not stated)	-1.3	x
COC(=O)C1=C(C)OC(N)=C(C#N)C1c1ccccc1 (configuration not stated)	1.4	i
O=C(CSc1nc2ccccc2c(=O)n1Cc1ccco1)N1CCCCCC1	-1.1	x
Cc1cc(NC(=O)COc2cccc(Oc3ccccc3)c2)no1	-0.1	i
CCOC(=O)N1CCN(c2c(NCc3ccccc3OC)c(=O)c2=O)CC1	11.7	x
Cc1nn(C(C)C(=O)N2CCCCC2)c(=O)c2c1sc1ccccc12 (configuration not stated)	0.2	x
COc1ccc(C)cc1S(=O)(=O)N1CCN(S(=O)(=O)c2cc(C)ccc2OC)CC1	2.0	i
CCOCCCNC(=O)C(c1ccc(C)cc1)N1CCOCC1 (configuration not stated)	0.0	x
CCC1CCCCN1C(=O)CSc1nnc(-c2ccc3c(c2)OCCO3)o1 (configuration not stated)	0.1	x
O=C(Nc1ncc(Br)s1)C1CCCN1S(=O)(=O)c1cccc2cccnc12 (configuration not stated)	0.4	i
O=C(CCn1c(=O)[nH]c2ccsc2c1=O)N1CCN(c2cccc(Cl)c2)CC1	1.2	x
CC1CCCCC1NC(=O)C1CCN(S(=O)(=O)N2CCCCCC2)CC1 (configuration not stated)	-1.2	x
CN1CCN(C(=O)C2CCN(S(=O)(=O)c3ccc4c(c3)oc(=O)n4C)CC2)CC1	-0.6	i
Next records:
SMILES	26S disassembly	VCAM-1 up
CC1CC(C)CN(S(=O)(=O)c2ccc(C(=O)Nc3nnc(-c4cccs4)o3)cc2)C1 (configuration not stated)	-0.8	x
CC(=O)NC(CCS(C)(=O)=O)C(=O)Nc1ccccc1C (configuration not stated)	-0.7	x
CCOC(=O)c1[nH]c(C)c(C(=O)N2CCN(C(=O)OCC)CC2)c1CC	-2.5	x
CCC(=O)N1CCc2cc(S(=O)(=O)NCCC(=O)N3CCN(c4ccccn4)CC3)ccc21	3.1	x
CCOC(=O)N1CCN(c2cc(=O)n(-c3ccc(OCC)cc3)c(=O)[nH]2)CC1	0.5	i
COC(=O)c1cccc(NC(=O)Cc2coc3cc(OC)ccc23)c1	1.7	i
CCOC(=O)N1CCN(Cc2nc3c(c(=O)n(C)c(=O)n3C)n2Cc2ccccc2)CC1	1.4	i
COc1ccc2c(c1OC)C(=O)OC2CC(=O)c1ccc(O)cc1 (configuration not stated)	1.1	65.0
CCCCCCn1c(CN2CCCCC2)nc2c1c(=O)n(C)c(=O)n2C	1.6	x
CC(=O)c1ccc(OCC(C)C)c(CN2CCCCC2)c1	-0.8	x
O=C(CCCCCn1c(=O)[nH]c2ccsc2c1=O)N1CCCCC1	-1.0	i
COc1ccc(-c2nc(Cn3c(SCc4cccc(F)c4)nc4ccncc43)c(C)o2)cc1OC	3.9	x
c1cn2cc(CSC3CCCCC3)nc2s1	5.9	i
COc1ccc(NC(=O)CCc2ccccc2)cc1NC(=O)c1ccco1	-3.0	i
CN(C=O)CP(=O)(O)CCN1CCCC1=O	-2.7	i
COc1c(Br)cc2c(C)c(C(=O)O)oc2c1Br	0.1	i
COc1ccc(Br)cc1CN1CCCC(C(=O)N2CCCCCC2)C1 (configuration not stated)	-1.2	x
CC(C)Cn1c(-c2ccc(F)cc2)n[nH]c1=S	-0.5	i
COc1ccc(N2C(=O)C3CCCN3C2c2cccc(C)c2)cc1Cl (configuration not stated)	5.5	x
COC(=O)c1ccccc1NC(=O)c1noc2c1CC(C(C)(C)C)CC2 (configuration not stated)	0.6	i
Cc1ccc(S(=O)(=O)N(CC(=O)N2CCC(C(N)=O)CC2)Cc2ccc(F)cc2)cc1	2.5	i
CCn1c(SCC(=O)Nc2ccc(C(C)=O)cc2)nc2ccccc21	-3.1	i
Cc1ccc(S(=O)(=O)C2(C(=O)Nc3nccs3)CC2)cc1	0.2	i
COc1ccc(N2C(=O)CSC2c2ccc3c(c2)OCO3)c(OC)c1 (configuration not stated)	-0.4	x
CCOC(=O)c1ccc(NC(=O)CC2C(=O)N(c3ccc(F)cc3)C(=O)N2CCCOC)cc1 (configuration not stated)	0.3	x

Record cards, from the list above:
CN(C=O)CP(=O)(O)CCN1CCCC1=O is entered as 26S disassembly: -2.7; VCAM-1 up: i
Cc1ccc(S(=O)(=O)C2(C(=O)Nc3nccs3)CC2)cc1 is entered as 26S disassembly: 0.2; VCAM-1 up: i

The listing picks up; the 2 compounds before the break are reprinted first.
SMILES	26S disassembly	VCAM-1 up
COc1ccc(N2C(=O)CSC2c2ccc3c(c2)OCO3)c(OC)c1 (configuration not stated)	-0.4	x
CCOC(=O)c1ccc(NC(=O)CC2C(=O)N(c3ccc(F)cc3)C(=O)N2CCCOC)cc1 (configuration not stated)	0.3	x
COc1ccc(CN2CC(C(=O)NCc3ccccn3)CC2=O)cc1 (configuration not stated)	-0.4	i
Cc1[nH]c(=O)[nH]c(=O)c1S(=O)(=O)NCCc1ccc(S(N)(=O)=O)cc1	1.1	x
c1cc2c(cc1C1=Nn3c(nnc3C3CCCCC3)SC1)OCO2	-1.3	i
O=C(COc1ccc(=O)n(-c2ccccc2)n1)Nc1ccccc1	-0.6	i
Cc1cc2ccccc2c(=O)n1CC(=O)N(C)c1ccc(F)cc1	-1.4	i
CCCCSc1nc2c(cnn2-c2ccc(Cl)cc2)c(=O)[nH]1	-0.4	i
Cc1ccc(CN2C(=O)CCC2C(=O)NCCN(CC(C)C)CC(C)C)cc1 (configuration not stated)	2.1	x
COc1ccccc1CNC(=O)C1CC(=O)N(C2CCCC2)C1 (configuration not stated)	-0.1	x
COc1ccc(C(=O)Nc2cccnc2)cc1C(=O)Nc1cccnc1	-0.1	i
O=C(CN(Cc1ccc(F)cc1)C(=O)c1ccco1)NCc1ccc(F)cc1	-1.5	i
CCOc1ccc2nc(N3CCC(C(=O)N4CCN(C5CCCCC5)CC4)CC3)sc2c1	-0.3	i
Cc1csc(NC(=O)c2sc3nc(-c4cccs4)ccc3c2N)n1	13.2	26.1
